High-throughput results: PubChem, several laboratories
RecA intein inh = inhibitors of M. tuberculosis RecA intein splicing | cell-free RecA intein splicing, fluorescence | P9WHJ3 | actives 0.75% (n = 290,000) | inhibition, %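 (about 9 µM by stock and volumes)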; in the data active = inhibition above about 30%; inconclusive = no clear call, values can overlap the other calls;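 also: 0% = vehicle wells and 100% = reference inhibitor control wells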
Target sequence (P9WHJ3 whole entry, looked up): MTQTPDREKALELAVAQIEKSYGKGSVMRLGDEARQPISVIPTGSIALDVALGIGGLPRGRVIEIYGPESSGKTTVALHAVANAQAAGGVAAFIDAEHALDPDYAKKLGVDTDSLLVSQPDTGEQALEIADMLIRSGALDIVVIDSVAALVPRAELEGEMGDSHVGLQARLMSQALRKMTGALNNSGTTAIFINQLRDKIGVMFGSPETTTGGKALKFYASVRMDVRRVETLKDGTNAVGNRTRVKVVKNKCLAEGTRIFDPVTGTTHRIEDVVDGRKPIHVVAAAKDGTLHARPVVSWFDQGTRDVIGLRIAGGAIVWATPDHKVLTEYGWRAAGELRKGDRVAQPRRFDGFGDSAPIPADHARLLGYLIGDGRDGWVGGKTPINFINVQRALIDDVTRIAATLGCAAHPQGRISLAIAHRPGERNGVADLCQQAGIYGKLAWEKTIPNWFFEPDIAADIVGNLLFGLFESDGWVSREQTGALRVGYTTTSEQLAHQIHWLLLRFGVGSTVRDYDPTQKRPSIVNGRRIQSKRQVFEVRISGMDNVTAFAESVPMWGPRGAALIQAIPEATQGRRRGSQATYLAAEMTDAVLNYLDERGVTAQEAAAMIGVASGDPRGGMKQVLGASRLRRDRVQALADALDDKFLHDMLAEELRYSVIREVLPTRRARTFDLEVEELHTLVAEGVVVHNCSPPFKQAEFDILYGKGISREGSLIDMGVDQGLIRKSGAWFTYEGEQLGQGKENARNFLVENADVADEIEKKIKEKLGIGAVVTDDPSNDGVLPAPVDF
Arbovirus inh = blocks arbovirus infection | arbovirus infection cell-based antiviral screen | inhibition, % at 10 µM | actives 0.37% (n = 200,000) | AID 1251;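 active = inhibition from about 30%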;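 also: bluetongue infection of BSR cells; cell survival read as ATP light after 72 h; 0% = infected wells without compound and 100% = uninfected wells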
Mtb bLac sens = beta-lactam sensitization of Mtb H37Rv | actives 0.27% (n = 330,000) | inhibition, % at 25 µM | M. tuberculosis H37Rv growth with meropenem, percent inhibition; hits of this screen are not shown here;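 active = about 74% or more and at least 40 points above the plate without the antibiotic, then above 30% in a dose series; inconclusive = first-round hits that could not be retested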;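 also: growth measured after seven days incubation then overnight dye step; 0% = bacteria only wells and 100% = bacteria with antibiotic; twin plates without the antibiotic show which effects depend on it; some results filed as inactive read as strong as hits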
YopH inh = blocks Yersinia enterocolitica YopH tyrosine phosphatase. AID 898. fluorescence Ex485/Em525. actives 0.16% (n = 140,000). inhibition, %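 (about 10 µM by stock and volumes)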;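 active = inhibition of 50% or more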;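 also: controls were vehicle for no effect and minimum signal wells for full effect; inactives centre near -20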
Mtb H37Rv = M. tuberculosis H37Rv growth inhibitors, H37Rv strain (AID 1626); one-dose inhibition, % at 10 µM; IC50 in µM for titrated hits; actives 0.95% (n = 220,000); M. tuberculosis H37Rv growth inhibition; higher % means a stronger effect;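 active = confirmed in a dose series; inconclusive = inhibition above 80% but not taken into the dose series; inactive = below 80% or under 30% at every dose of the series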;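 also: bacteria incubated seven days before Alamar blue readout; 0% = bacteria only wells and 100% = bacteria with antibiotic wells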
Arbovirus inh repeat = recorded beside Arbovirus inh, whose call it bears; inhibition, %; measured here: 10K subset replicate screen; many hits read low in the repeat;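 first of two repeat runs on a subset; 0% = infected and 100% = uninfected wells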
Numbers without * were called inactive. Not all compounds are listed, so the mix of outcomes need not match the whole.

How did Cc1cccc(CC(=O)OCn2nnc3ccccc3c2=O)c1 do in these assays?
RecA intein inh: -4.9; Arbovirus inh: -7; Mtb bLac sens: 97; YopH inh: -27; Mtb H37Rv: 33%

How did Nc1nc2c(s1)CCCCCCCCCC2 do in these assays?
RecA intein inh: 8.2; Mtb bLac sens: 13; Mtb H37Rv: -1%

How did O=[N+]([O-])c1ccc(C[n+]2cccc3ccc4cccnc4c32)cc1 do in these assays?
RecA intein inh: 0.9; Arbovirus inh: -32; Mtb bLac sens: 55; Mtb H37Rv: -3%

Results for CCOC(=O)c1ccc(NC(=O)c2nc[nH]c2C(=O)NC)cc1 ?
RecA intein inh: 0.6; Mtb bLac sens: -6; Mtb H37Rv: -8%

What do the screens show for `Cc1cc(C(C)(C)C)ccc1OCCN(C)C`?
RecA intein inh: -2.0; Arbovirus inh: -1; Mtb bLac sens: -9; YopH inh: -9; Mtb H37Rv: -2%; Arbovirus inh repeat: 2

How did Cn1nc(-c2ccc(C(=O)Nc3cccc(Cl)c3)cc2)c2ccccc2c1=O do in these assays?
RecA intein inh: 2.2; Arbovirus inh: -17; Mtb bLac sens: 5; YopH inh: -10; Mtb H37Rv: -8%

Results for Cc1cc(-c2cc(C(=O)NCc3ccccc3)on2)nc(NC2CCCC2)n1 ?
RecA intein inh: -0.1; Mtb bLac sens: 61; Mtb H37Rv: 6%

How did COC(=O)c1sc(NC(=O)c2cccc([N+](=O)[O-])c2)c(C(N)=O)c1C do in these assays?
RecA intein inh: -1.4; Arbovirus inh: -35; Mtb bLac sens: -1; YopH inh: -11; Mtb H37Rv: 5%

What do the screens show for `CCOC(=O)c1ccc(NC(=O)CS(=O)(=O)c2cn(CC)c3ccccc23)cc1`?
Arbovirus inh: -9; Mtb bLac sens: -3; YopH inh: -30; Mtb H37Rv: 1%

How did COc1cc(/C=C/C(=O)O)cc(S(=O)(=O)NCCCO)c1OC do in these assays?
RecA intein inh: -0.3; Arbovirus inh: 10; Mtb bLac sens: -4; YopH inh: -29

What do the screens show for `COC(=O)c1cn(C(=O)c2ccc(C)c(C)c2)c2ccccc12`?
RecA intein inh: -3.0; Arbovirus inh: -4; Mtb bLac sens: 6; YopH inh: -20; Mtb H37Rv: 3%

What do the screens show for `COC(=O)Nc1ccc(S(=O)(=O)N2CCCC(C(=O)N3CCCCC3)C2)cc1` (stereo not drawn)?
RecA intein inh: -6.4; Arbovirus inh: 29; Mtb bLac sens: -6; Mtb H37Rv: 3%

Results for Cc1cc(F)ccc1N1CCC(N2CCN(C)C(CCO)C2)CC1 (stereo not drawn) ?
RecA intein inh: -0.5; Mtb bLac sens: -6

Results for Cc1cc(C(=O)NCCC2=CCCCC2)ccc1[N+](=O)[O-] ?
RecA intein inh: 4.3; Arbovirus inh: -4; Mtb bLac sens: 99; Mtb H37Rv: -5%

What do the screens show for `CCCCOC(=O)C1=C(C)Nc2ncnn2C1c1cccc(OC)c1` (stereo not drawn)?
RecA intein inh: -0.7; Arbovirus inh: -2; Mtb bLac sens: 8; YopH inh: -26; Mtb H37Rv: -3%

Results for O=C(Nc1ccc(-n2cnnn2)cc1)C1CCC1 ?
RecA intein inh: 0.2; Arbovirus inh: 1; Mtb bLac sens: -11; YopH inh: -37; Mtb H37Rv: 2%

Results for O=C(O)c1ccccc1-c1ccc(C=C2C(=O)N(c3ccccc3)C(=S)N(c3ccccc3)C2=O)o1 ?
RecA intein inh: 2.9; Mtb bLac sens: 7

What do the screens show for `COc1ccc(NC(=O)/C(C#N)=C\c2ccc(-c3cc(C(=O)O)ccc3C)o2)cc1`?
RecA intein inh: 0.6; Mtb bLac sens: 6

How did CCOc1ccc2c(c1)-c1c(ssc1=S)C(C)(C)N2C do in these assays?
RecA intein inh: -16; Arbovirus inh: -17; Mtb bLac sens: 0; YopH inh: -2; Mtb H37Rv: 10%

Results for N#CCCN(CCC#N)c1nnc(-c2ccccc2)s1 ?
RecA intein inh: 0.0; Arbovirus inh: 2; YopH inh: -21; Mtb H37Rv: -10%

Results for C/C=C(\C)CN1CCc2cc(OC)c(OC)cc2C1 ?
RecA intein inh: -8.0; Arbovirus inh: -1; Mtb bLac sens: -8; YopH inh: -4; Mtb H37Rv: -8%

How did O=C(c1cc2cc(F)ccc2[nH]1)N1CCN(c2ccc(F)cc2)CC1 do in these assays?
RecA intein inh: -0.4; Mtb bLac sens: -1

How did Cc1ccc(SCCC(=O)N(C)C)cc1 do in these assays?
RecA intein inh: 0.9; Arbovirus inh: 16; Mtb bLac sens: -6; YopH inh: -70; Mtb H37Rv: -4%

Results for COc1ccc(C(=O)OCC(=O)NCc2ccc3c(c2)OCO3)cc1[N+](=O)[O-] ?
RecA intein inh: -7.2; Arbovirus inh: 6; Mtb bLac sens: 1; YopH inh: -26; Mtb H37Rv: -2%

Results for CCOc1cc(CNc2ncc(-c3ccc(OC)cc3)n2C)ccc1O ?
RecA intein inh: -2.9; Arbovirus inh: 16; Mtb bLac sens: -3; YopH inh: 5; Mtb H37Rv: -6%

Results for O=C1N=C(O)CN1/N=C/c1ccc(-c2ccc([N+](=O)[O-])cc2)o1 ?
RecA intein inh: 9.8; Mtb bLac sens: -1; Mtb H37Rv: -5%

How did Cc1cc(NC(c2ccc(Cl)cc2)c2ccc3cccnc3c2O)no1 (stereo not drawn) do in these assays?
RecA intein inh: 1.3; Arbovirus inh: -25; Mtb bLac sens: -1; YopH inh: -14; Mtb H37Rv: 6%

How did COc1ccc(NC(=O)COc2coc(CN3CCc4ccccc43)cc2=O)cc1 do in these assays?
RecA intein inh: -1.0; Mtb bLac sens: 4

Results for COc1ccc(CNC(=O)CCS(=O)(=O)Cc2cccc(Cl)c2)c(OC)c1 ?
RecA intein inh: 4.4; Arbovirus inh: -1; Mtb bLac sens: -8; Mtb H37Rv: 1%

How did O=C(NCc1ccc(C(F)(F)F)cc1)C1CC(c2cccc(F)c2)=NO1 (stereo not drawn) do in these assays?
RecA intein inh: -2.0; Mtb bLac sens: -4; Mtb H37Rv: 5%

How did COC(=O)C1=C(C)N(C)C(C)=C(C(=O)OC)C1c1ccc(C(=O)OC)cc1 do in these assays?
Arbovirus inh: -8; Mtb bLac sens: -4; YopH inh: -46; Mtb H37Rv: 2%

Results for O=C(CSc1nnc(-c2c[nH]c3ccccc23)o1)N(Cc1ccccc1)c1ccc(F)cc1 ?
RecA intein inh: 1.0; Arbovirus inh: -12; Mtb bLac sens: -6; YopH inh: 4; Mtb H37Rv: 7%

Results for C=CCN(C(=O)c1csnn1)C(C(=O)NC1CCCC1)c1ccccc1 (stereo not drawn) ?
RecA intein inh: 0.3; Mtb bLac sens: -2

Results for N#Cc1c(SCc2ccccc2)sc(C(=O)c2ccccc2)c1N ?
RecA intein inh: 0.4; Arbovirus inh: -15; Mtb bLac sens: -2; YopH inh: -18; Mtb H37Rv: 4%

How did COc1ccc(CNC(=O)C(c2ccco2)N(Cc2ccccc2)C(=O)Cc2cccs2)cc1 (stereo not drawn) do in these assays?
RecA intein inh: -0.2; Arbovirus inh: -5; Mtb bLac sens: -3; YopH inh: -22; Mtb H37Rv: 1%

What do the screens show for `Cc1ccc(C)c(SCc2noc(C(=O)NCC3CCCO3)c2C(=O)O)c1` (stereo not drawn)?
RecA intein inh: -2.0; Arbovirus inh: 12; YopH inh: -126; Mtb H37Rv: -11%

How did Cc1ccc(NC(=O)COC(=O)[C@H](C)NC(=O)c2ccccc2)cc1S(=O)(=O)N1CCOCC1 do in these assays?
RecA intein inh: 0.9; Mtb bLac sens: -4; Mtb H37Rv: -6%

Results for COC(=O)C1=C(C)N(C(C)c2ccccc2)C(=O)/C1=C\c1ccco1 (stereo not drawn) ?
RecA intein inh: -0.1; Arbovirus inh: 2; Mtb bLac sens: 5; Mtb H37Rv: -5%

What do the screens show for `O=C1CC(c2ccco2)CC(O)=C1C=Nc1cc(Cl)ccc1O` (stereo not drawn)?
RecA intein inh: -0.4; Arbovirus inh: 17; Mtb bLac sens: 92; YopH inh: -40; Mtb H37Rv: -2%

Results for Cc1ccc2c(cnn2C(=O)CCC(=O)NCc2ccccc2Cl)c1 ?
RecA intein inh: -5.4; Mtb bLac sens: 1

Results for O=C(NC1CC1)c1ccc(CS(=O)(=O)c2c(Cl)cccc2Cl)o1 ?
RecA intein inh: 0.0; Arbovirus inh: -1; Mtb bLac sens: inconclusive; YopH inh: -2; Mtb H37Rv: -6%; Arbovirus inh repeat: -1

What do the screens show for `Cc1cc(OCC(=O)NC(Cc2ccc(Cl)cc2)C(=O)O)c2c(C)c(C)c(=O)oc2c1` (stereo not drawn)?
RecA intein inh: -2.3; Mtb bLac sens: 1

What do the screens show for `CCCCCc1c(C)nc(NCc2ccccc2)[nH]c1=O`?
RecA intein inh: 0.5; Arbovirus inh: -7; Mtb bLac sens: 0; YopH inh: -38; Mtb H37Rv: -4%

How did Cc1ccc(NC(=O)CSc2nnc(-c3cnccn3)n2Cc2ccco2)cc1C do in these assays?
RecA intein inh: 1.8; Arbovirus inh: 3; Mtb bLac sens: 1; YopH inh: 0; Mtb H37Rv: -2%

Results for O=C(Nc1ccc(F)cc1)C(Sc1nc2ccccc2[nH]1)c1ccccc1 (stereo not drawn) ?
RecA intein inh: 3.0; Arbovirus inh: -24; Mtb bLac sens: 11; YopH inh: -6; Mtb H37Rv: 5%

Pulled by compound from the entries so far, 5 records:
Results for O=C(NC1CC1)c1ccc(CS(=O)(=O)c2c(Cl)cccc2Cl)o1 ?
RecA intein inh: 0.0; Arbovirus inh: -1; Mtb bLac sens: inconclusive; YopH inh: -2; Mtb H37Rv: -6%; Arbovirus inh repeat: -1

Results for Cc1ccc2c(cnn2C(=O)CCC(=O)NCc2ccccc2Cl)c1 ?
RecA intein inh: -5.4; Mtb bLac sens: 1

Results for C=CCN(C(=O)c1csnn1)C(C(=O)NC1CCCC1)c1ccccc1 (stereo not drawn) ?
RecA intein inh: 0.3; Mtb bLac sens: -2

How did Cc1ccc(NC(=O)CSc2nnc(-c3cnccn3)n2Cc2ccco2)cc1C do in these assays?
RecA intein inh: 1.8; Arbovirus inh: 3; Mtb bLac sens: 1; YopH inh: 0; Mtb H37Rv: -2%

Results for O=C(Nc1ccc(F)cc1)C(Sc1nc2ccccc2[nH]1)c1ccccc1 (stereo not drawn) ?
RecA intein inh: 3.0; Arbovirus inh: -24; Mtb bLac sens: 11; YopH inh: -6; Mtb H37Rv: 5%

Carrying on:
Results for CCCc1nnc(NC(=O)c2c(O)c3cccc4c3n(c2=O)CCC4)s1 ?
RecA intein inh: 4.1; Mtb bLac sens: 4; Mtb H37Rv: <0.39µM*

How did O=C(NCc1ccco1)C(c1ccncc1)N(C(=O)Cn1nnc2ccccc21)c1ccccc1 (stereo not drawn) do in these assays?
RecA intein inh: 1.6; Mtb bLac sens: 5

How did Cc1oc(=O)c(NC(=O)c2cccc(Cl)c2)cc1C(=O)c1ccccc1 do in these assays?
RecA intein inh: 1.6; Arbovirus inh: -3; Mtb bLac sens: 11; YopH inh: -35; Mtb H37Rv: 4%

Results for O=C(CSc1ncnc2ccccc12)N1CCCC1 ?
RecA intein inh: 3.8; Arbovirus inh: -5; Mtb bLac sens: 3; YopH inh: -37; Mtb H37Rv: 6%

Results for CCOC(=O)C1CCCN(C(=O)CSc2ccccc2)C1 (stereo not drawn) ?
RecA intein inh: -6.8; Arbovirus inh: 3; Mtb bLac sens: -3; YopH inh: -25; Mtb H37Rv: -2%

Results for O=C(N/N=C/c1cc2c(cc1Br)OCO2)c1cc2ccccc2o1 ?
RecA intein inh: 0.3; Mtb bLac sens: 4

Results for CC(=NCC1CCCO1)c1c(O)[nH]c(=O)[nH]c1=O (stereo not drawn) ?
RecA intein inh: -1.8; Arbovirus inh: 7; Mtb bLac sens: -12; YopH inh: 0; Mtb H37Rv: -10%

How did CSc1nc2n(n1)C(c1cccs1)C1=C(CCCC1=O)N2 (stereo not drawn) do in these assays?
RecA intein inh: 0.1; Arbovirus inh: 2; Mtb bLac sens: 2; Mtb H37Rv: 6%

Results for CN(C(=O)c1cccc(Nc2ccc(-c3ccc4c(c3)OCCO4)nn2)c1)C1CCCCC1 ?
Arbovirus inh: -15; Mtb bLac sens: 88; YopH inh: -27; Mtb H37Rv: 14%

Results for CNC(=O)N(O)C1N(/N=C/c2c(F)cccc2Cl)C(=S)SC1(C)C (stereo not drawn) ?
RecA intein inh: -1.5; Mtb bLac sens: -8

Results for Cc1ccnc(NC2(C(F)(F)F)N=C(c3ccccc3)NC2=O)c1 (stereo not drawn) ?
RecA intein inh: 0.7; Arbovirus inh: 1; Mtb bLac sens: -8; YopH inh: -21; Mtb H37Rv: 2%
